# Rango complex inh: inhibitors of Rango-importin beta complex formation; Q14974; Rango CFP/YFP FRET sensor + importin beta, 45 min; Potency, µM (titrated, usually from 92.2 µM), for the others: top-dose inhibition of complex formation; 340,000 compounds, 0.031% hits; AID 540263; active = rising FRET ratio curve, often small or poorly fitted; inconclusive = mostly compound fluorescence or quenching in the first reads; inactive = flat curves in all reads;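 further: potency means the concentration at half of the fitted maximal effect; 0% = DMSO wells and 100% = buffer wells lacking importin beta; nearly all actives have a fitted effect of over 15% in size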
#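 Inhibition scored from the CFP 486 nm/YFP 530 nm FRET ratio 45 min after adding 0.125 microM importin beta to 50 nM Rango biosensor preincubated 5 min with compound (room temperature, PBS with DTT, Tween-20, BSA). No-importin wells as positive control.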
# GLA inh pH 4.5: inhibitors of human alpha-galactosidase A at pH 4.5; activity change, negative = inhibition, % at 105 µM; purified enzyme, 4-MU-alpha-Gal fluorescence, pH 4.5; AID 1467; 230,000 tested, under 10 active; P06280; inconclusive = small, poorly fitted or top-dose-only inhibition, or a rising curve; inactive = flat fitted curve, though single readings scatter; no compound was filed as active;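 further: 0% = full activity with enzyme and -100% = basal without enzyme; dose as in the result columns while the protocol names 77 µM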
# Target sequence (P06280 whole entry, looked up): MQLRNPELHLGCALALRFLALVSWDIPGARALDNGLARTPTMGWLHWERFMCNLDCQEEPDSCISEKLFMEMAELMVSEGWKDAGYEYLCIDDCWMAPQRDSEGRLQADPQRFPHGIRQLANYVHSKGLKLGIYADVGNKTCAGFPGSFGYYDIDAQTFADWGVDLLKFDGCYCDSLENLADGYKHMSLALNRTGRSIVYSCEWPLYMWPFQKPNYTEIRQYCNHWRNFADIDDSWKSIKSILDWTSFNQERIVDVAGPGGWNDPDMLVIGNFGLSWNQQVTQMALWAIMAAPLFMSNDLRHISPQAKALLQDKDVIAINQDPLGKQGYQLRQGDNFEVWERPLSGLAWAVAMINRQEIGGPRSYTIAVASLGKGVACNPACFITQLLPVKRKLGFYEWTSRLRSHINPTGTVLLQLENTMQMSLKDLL
# miR-21 reporter: miR-21 reporter, rising signal; 340,000 tested, under 10 active; Potency, µM (series often up to 38.3 µM), inactives show at the highest dose reporter change, positive = more light; HeLa miR-21 FLuc reporter, luciferase, 48 h; active = well fitted rising curve with a large enough effect; inconclusive = small, poorly fitted or top-dose-only effect; inactive = no such curve, though single readings can be large or run the other way;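 further: % of control where 0% means no effect; miR-21 action dims this reporter so a rising signal means less miR-21 action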
#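 HeLa miR-21-FLuc reporter line, endogenous miR-21; 2000 cells/well in DMEM/10% FBS; compound titration up to ~40uM final, 48 h, 37 degree Celsius; luciferase detection reagent, 15 min lysis, CCD luminescence.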
# Rango dissoc inh: inhibition of RanGTP-driven Rango-importin beta dissociation; O95149+P62826; 340,000 compounds, 0.071% hits; Biochemical FRET Rango-importin beta, RanGTP-induced dissociation; Potency, µM (series often up to 46.1 µM), for inactives: at the top dose activity change, negative = inhibition; active means falling FRET ratio curve, often poorly fitted, with flat reads before Ran was added; inconclusive means other falling curves, or compound fluorescence or quenching; inactive means flat or rising ratio curve;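 further: potency means the concentration at half of the fitted maximal effect; % of control where 0% means no effect; nearly all actives have a fitted effect of over 45% in size; -100% = wells without RanGTP and RCC1; the record marks most hits as doubtful in a second field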
#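 FRET read at 45 min, room temperature: inhibitors block the CFP/YFP signal rise when RanGTP (0.6 uM Ran, 2 mM GTP, 0.2 uM RCC1) frees Rango (0.1 uM) from importin beta (0.25 uM). Pre-read after 5 min compound exposure flags interference.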
# * marks the source's active call; other numbers are inactive results; ? = inconclusive; / = not tested or not shown; & = joins results of further samples. This is a subset, so the mix of outcomes need not match the whole.
Rango dissoc inh	Rango complex inh	miR-21 reporter	GLA inh pH 4.5	molecule
38%	1.2%	/	/	Cc1ccc(C(=O)NNC(=O)c2cccc3ccccc23)cc1
-14%	-6.8%	-1%	6	CNC(=O)CN(C)S(=O)(=O)c1ccc(F)cc1
13%	-2.5%	4%	-2	COc1ccc(N2CC(C)Cn3c2nc2c3c(=O)n(Cc3ccccc3F)c(=O)n2C)c(OC)c1 (stereo not given)
11%	-1.8%	-2%	-12	CCOC(=O)C1CCN(C(=O)c2c(-c3c(Cl)cccc3Cl)noc2C)CC1
4%	0.4%	/	/	COc1cccc(C(=O)OCC(=O)c2c[nH]c3ccccc23)c1OC
-4%	0.4%	-2%	-7	COC(=O)c1ccc(NC(=O)c2ccccc2N(C)S(C)(=O)=O)cc1
-8%	3.5%	-4%	-5	COc1ccccc1Cn1c(=O)c2ccccc2n2c(SCC(=O)N3CCCCC3)nnc12
2%	6.6%	/	/	CCC(CC)NC(=O)CSc1ccc(S(=O)(=O)N2CCCCC2)cn1
-5%	1.2%	0%	1	O=C(Nc1cccnc1)C1CCC(CNS(=O)(=O)c2cccc3nsnc23)CC1 (stereo not given)
-20%	-0.6%	-7%	/	COc1ccc(S(=O)(=O)N2N=C(c3cccc(NS(C)(=O)=O)c3)CC2c2ccco2)cc1 (stereo not given)
-4%	-0.7%	-7%	-5	COc1cc(C(=O)Nc2nnc(-c3sccc3C)s2)cc(OC)c1OC
4%	-0.3%	-2%	-6	CCOCCCNC(=O)N[C@@H](C)C(=O)OC
-2%	-1.6%	-1%	-4	Cn1c(SCC(=O)N/N=C/c2cc([N+](=O)[O-])ccc2O)nnc1-c1ccccc1
8%	-1.2%	1%	-8	CCCCN(CC)CCNC(=O)CN(C)S(=O)(=O)c1ccc2c(c1)c(=O)n(C)c(=O)n2C
3%	3.4%	-15%	-5	COc1ccccc1OCC(=O)Nc1ccc(S(=O)(=O)Nc2nc(C)cc(C)n2)cc1
-11%	1.3%	2%	-26	COc1ccc2[nH]c(C(=O)NCc3ccc4c(c3)OCO4)cc2c1
-16%	2.8%	-2%	7	C=CCOC(=O)c1ccc(-n2cncn2)nc1
17%	-7.3%	2%	/	COc1ccc(Cl)cc1NC(=O)CCS(=O)(=O)c1ccc(Br)cc1
-9%	?	/	/	O=C(C1COc2ccccc2O1)N1CCN(c2nc3ccc([N+](=O)[O-])cc3s2)CC1 (stereo not given)
12%	8.3%	/	/	COc1ccccc1N(C)S(=O)(=O)c1ccc(Cl)c(C(=O)N2CCC2)c1
-1%	3.7%	-9%	-2	CCCS(=O)(=O)N1CCN(C(=O)c2ccccc2F)CC1
24%	3.5%	2%	/	COc1ccc(-n2cnnc2SCC(=O)N(C)c2ccccc2)cc1
3%	-1.3%	/	/	O=C(O)/C(=C\c1ccco1)NC(=O)c1ccc(Br)o1
-12%	-0.2%	-4%	-2	O=C(Nc1nnc(C2CC2)s1)c1cc(-c2ccccc2)nn1-c1ccccc1
3%	-6.0%	0%	-17	COc1ccc(NS(=O)(=O)c2ccc3oc4ccccc4c3c2)cn1
4%	2.9%	0%	/	Fc1ccc(N2CCN(C3CCC(c4ccccc4)CC3)CC2)cc1 (stereo not given)
-13%	0.2%	/	/	CN(C)C(=O)c1ccc(-c2cc3onc(-c4ccccc4)c3c(=O)n2C)cc1
19%	5.8%	-5%	2	COc1ccc(CN2CCOC2=O)cc1OC
-15%	-0.1%	/	/	CC(Sc1nnc(C2CC2)n1C)C(=O)Nc1ccc(N2CCOCC2)cc1 (stereo not given)
-3%	1.4%	0%	-16	CC1(C)CN(c2ccc(F)cc2)C1=O
7%	-1.3%	-2%	-6	NC(=O)CSc1nnc(-c2ccco2)n1N
3%	-5.7%	20%	-7	Cc1ccc(-c2nc3ccc([N+](=O)[O-])cc3[nH]2)cc1
-6%	?	-9%	-18	COc1cccc(C2CC(c3ccccc3)=NN2S(=O)(=O)c2ccccc2)c1OC (stereo not given)
11%	?	/	/	COc1cc(OC)c(OC)cc1CNCC1COc2ccccc2O1 (stereo not given)
-14%	-0.9%	0%	/	C/C(=N\NC(=O)c1nnn(-c2nonc2N)c1CN1CCC(C)CC1)c1cccc(Br)c1
9%	0.6%	/	/	CCOC(=O)c1c(C)[nH]c(C)c1C(=O)COC(=O)c1sccc1C
1%	-0.3%	-20%	-5	COc1cc(SC)ccc1C(=O)Nc1ccc2c(c1)CCN2S(C)(=O)=O
1%	-2.0%	-13%	1	O=C(Cc1c[nH]c2ccccc12)Nc1nccs1
7%	-1.1%	-1%	-2	COc1ccc2nc(C)[nH]c(=O)c2c1
?	?	26%	-8	Cc1cccc2cc(C#N)c(NCCCNS(=O)(=O)c3ccc(Cl)cc3)nc12
-6%	2.8%	1%	6	O=C(NC1CCCCC1)C(c1cccs1)N(CC1CCCO1)C(=O)c1csnn1 (stereo not given)
-23%	?	-9%	/	COc1ccc(C(=O)N2CCN(C3CCCCC3)CC2)cc1OC
8%	1.4%	1%	/	CCc1nnc(NC(=O)CCC(=O)N2CCN(Cc3ccc(F)cc3)CC2)s1
?	?	20%	/	N#CC1=C(N)Oc2cc(N)ccc2C1c1ccc(F)cc1F (stereo not given)
10%	1.9%	-3%	/	O=C(O)c1cccc(-n2c(/C=C/c3cccc([N+](=O)[O-])c3)nc3ccccc3c2=O)c1

# Complete entries from above. Screens in order: Rango dissoc inh	Rango complex inh	miR-21 reporter	GLA inh pH 4.5
# Profile of O=C(O)c1cccc(-n2c(/C=C/c3cccc([N+](=O)[O-])c3)nc3ccccc3c2=O)c1 → 10%	1.9%	-3%	/
# Profile of CCOC(=O)c1c(C)[nH]c(C)c1C(=O)COC(=O)c1sccc1C → 9%	0.6%	/	/
# Profile of COc1cc(OC)c(OC)cc1CNCC1COc2ccccc2O1 (stereo not given) → 11%	?	/	/
# Profile of O=C(Cc1c[nH]c2ccccc12)Nc1nccs1 → 1%	-2.0%	-13%	1
# Profile of C/C(=N\NC(=O)c1nnn(-c2nonc2N)c1CN1CCC(C)CC1)c1cccc(Br)c1 → -14%	-0.9%	0%	/

# The listing picks up with the 2 entries that preceded the break.
Rango dissoc inh	Rango complex inh	miR-21 reporter	GLA inh pH 4.5	molecule
?	?	20%	/	N#CC1=C(N)Oc2cc(N)ccc2C1c1ccc(F)cc1F (stereo not given)
10%	1.9%	-3%	/	O=C(O)c1cccc(-n2c(/C=C/c3cccc([N+](=O)[O-])c3)nc3ccccc3c2=O)c1
5%	0.1%	-10%	/	Cc1nc(SCC(=O)NCC2CCCO2)c2c3c(sc2n1)CCCC3 (stereo not given)
2%	-0.8%	3%	/	COc1ccc(NC(=O)COC(=O)C2CC(=O)N(c3ccc(C)cc3)C2)cc1 (stereo not given)
-12%	?	0%	/	CCc1ccc(CNC(=O)CC2C(=O)NCCN2Cc2ccccc2F)nc1 (stereo not given)
0%	-0.5%	-6%	4	Cc1cccc(NC(=O)/C(=C/c2cccc([N+](=O)[O-])c2)NC(=O)c2cccs2)c1
11%	2.2%	/	/	CC12CCC(CC1=O)C2(C)C (stereo not given)
15%	-3.7%	-1%	8	CCNC(=S)N1CCC(C(O)(c2ccccc2)c2ccccc2)CC1
-13%	?	/	/	COc1cc(CC(=O)OCC(=O)NCc2ccc(C)cc2)cc(OC)c1OC
-10%	0.1%	5%	8	CCN1CCN(c2cc(C)c3cc(NC(=S)N(CC)CC)ccc3n2)CC1
-2%	-0.4%	-4%	/	Cc1ccc(-n2nc3c(c2NC(=O)c2cccs2)CS(=O)(=O)C3)cc1C
-1%	0.8%	/	/	COc1ccc(NC(=O)CN(C)C(=O)CCCSc2nc3ccccc3[nH]2)cc1
15%	-3.8%	/	/	CC(Sc1nnc(-c2ccccc2F)n1C)C(=O)NC1CCCCC1 (stereo not given)
-4%	?	-3%	8	CCc1nc(NC(=O)NS(=O)(=O)c2ccccc2C(=O)OC)nc(OC)n1
7%	-5.5%	-6%	-10	CC(=O)c1cc2c(cc1NC(=O)CCn1cccc1)OCO2
-6%	-2.5%	-2%	-2	COc1ccc(OC)c(NC(=O)CNC(=O)Cn2ccc3ccccc3c2=O)c1
?	-2.0%	-19%	-2	c1ccc2c(c1)NC(c1ccncc1)n1c-2nc2ccccc21 (stereo not given)
10%	0.0%	/	/	O=C(c1ccc(S(=O)(=O)N2CCCC2)cc1)N1CCCCC1
-15%	7.5%	/	/	C[C@H](CO)N1C[C@H](C)[C@@H](CN(C)C(=O)Nc2ccc(C(F)(F)F)cc2)Oc2c(NC(=O)CCC(F)(F)F)cccc2C1=O
-18%	-0.2%	-4%	4	COc1ccc(CCNC(=O)c2ccc(C)s2)cc1OC
?	?	6%	13	Cc1cc(-c2cc(-c3ccc(Cl)cc3)nc(N)c2C#N)co1
-9%	1.7%	-38%	0	COc1ccccc1N1CCN(/N=C\c2sccc2C)CC1
4%	-1.1%	-18%	-2	O=C(NNC(=S)Nc1ccc(F)cc1)[C@H]1C[C@@H]1c1ccccc1
3%	-5.7%	-2%	-2	COc1ccc(-c2cc(C(=O)N3CCCc4ccccc43)no2)cc1OC
1%	8.4%	-2%	2	CCOC(=O)Nc1ccccc1C(=O)Nc1cc(C)cc(C)c1
-12%	0.4%	-1%	3	O=C(N/N=C/c1c[nH]c2c1ccc1ccccc12)c1ccc([N+](=O)[O-])cc1
-8%	?	-3%	/	Cc1[nH]c2ccc(C(=O)NCCCN3CCOCC3)cc2c1C
1%	1.2%	1%	/	Cc1cccc(NC(=S)N2CCC(NC(=O)c3cccc(F)c3)CC2)c1
0%	-0.2%	5%	-3	O=C(Nc1nc2c(s1)CCCC2)c1ccc(Br)s1
-4%	-2.9%	1%	3	Cc1ccc(CC2CC(=O)N(c3ncccn3)C2=O)cc1 (stereo not given)
-7%	2.7%	-7%	2	Nc1nc(SCC(=O)Nc2ccccc2-c2ccccc2)n[nH]1
3%	0.3%	-7%	-12	CCn1c(O)c(N=NC2=NC(=O)CS2)c2ccccc21
-4%	2.7%	-5%	-3	COc1ccc(-n2cnnc2SCc2csc(-c3ccccc3)n2)cc1
-3%	1.6%	13%	/	CCc1ccc(OCC(=O)NNC(=S)NC(=O)C2CC2)c(Br)c1
15%	-4.3%	-53%	3	CN(C)c1ccc(C2CC(=O)C=C(Nc3ccccc3N)C2)cc1 (stereo not given)
1%	-0.7%	-8%	-2	CSc1nc(C)cc(SCC(=O)Nc2ccc(Cl)cc2Cl)n1
1%	-0.4%	7%	5	COc1ccc(/C=N/NC(=S)Nc2c(C)n(C)n(-c3ccccc3)c2=O)cc1OC
-6%	-1.8%	-16%	3	Clc1ccc(OCc2cnc(Cl)s2)cc1
27%	-2.6%	7%	2	O=C(Nc1ccccc1-c1nnn(CC(=O)N2CCOCC2)n1)c1ccc(F)cc1
-14%	-2.2%	-1%&-8%	-7	COC(=O)c1cc2occc2n1Cc1nc(-c2ccc(Cl)cc2)oc1C

# By substructure, the entries above containing a Cl atom
Rango dissoc inh	Rango complex inh	miR-21 reporter	GLA inh pH 4.5	molecule
11%	-1.8%	-2%	-12	CCOC(=O)C1CCN(C(=O)c2c(-c3c(Cl)cccc3Cl)noc2C)CC1
17%	-7.3%	2%	/	COc1ccc(Cl)cc1NC(=O)CCS(=O)(=O)c1ccc(Br)cc1
12%	8.3%	/	/	COc1ccccc1N(C)S(=O)(=O)c1ccc(Cl)c(C(=O)N2CCC2)c1
?	?	26%	-8	Cc1cccc2cc(C#N)c(NCCCNS(=O)(=O)c3ccc(Cl)cc3)nc12
?	?	6%	13	Cc1cc(-c2cc(-c3ccc(Cl)cc3)nc(N)c2C#N)co1
1%	-0.7%	-8%	-2	CSc1nc(C)cc(SCC(=O)Nc2ccc(Cl)cc2Cl)n1
-6%	-1.8%	-16%	3	Clc1ccc(OCc2cnc(Cl)s2)cc1
-14%	-2.2%	-1%&-8%	-7	COC(=O)c1cc2occc2n1Cc1nc(-c2ccc(Cl)cc2)oc1C
